Assay outcomes as filed in PubChem BioAssay.
TRPML1 agonist: human mucolipin-1 channel agonism. Q9GZU1. TRPML1-expressing cells, Ca2+ dye fluorescence, FDSS; host cell line not named in the record; reference of the full effect not given here. activation, % (concentration not given with the values). 0.12% of 410,000 active. AID 624414; in the data active = activation above about 50%; inconclusive = about 30% to 50%; inactive = below about 30%; note: 0% is about no effect; the text of the record puts the active cut at 80%
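Agonist activity was taken from a 110 s kinetic Ca2+ dye read on the FDSS after pinning compounds onto TRPML1-DL cells. The cells were seeded at 1,500/well with Tet inducer, incubated about 16 h, then dye-loaded at room temperature.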
TRPML1 inh: blocks the human TRPML1 channel; TRPML1-inducible cells, Ca2+ dye fluorescence, FDSS; hits give low values; inhibition of EC80 agonist-evoked calcium signal; 0.02% of 390,000 active; AID 624415; activity change, negative = inhibition, % (no concentration beside the values); in the data active means activity change below about -50%; inconclusive means about -30% to -50%; inactive means above about -30%;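 note: stimulus is agonist 54-4 at its EC80 concentration; % is set by controls: 0 for no effect and ±100 for the full control effect; compound concentration not given in the record; the text of the record puts the active cut at -80%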
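Tet-induced TRPML1-DL cells loaded with Ca8 no-wash calcium dye were read kinetically on FDSS. Compound addition was followed by EC80 agonist 54-4 (4 uM final); inhibition was read over 110 s.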
D2 PAM: positive allosteric modulators of human D2 dopamine receptor; DiscoveRx D2 beta-arrestin cells, luminescence, 90 min; 100% = 57 uM dopamine signal; potentiation, % (test concentration not listed); 0.23% of 360,000 active; AID 624464; active = potentiation of 50% or more; inconclusive = 30% to 50%; inactive = 30% or less;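 note: compound concentration not given in the record; tested on top of an EC20 dose of dopamine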
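PathHunter D2 cells, attached overnight at 37 deg C, received compound in DMSO plus dopamine at EC20 (50 nM final) for 90 min at 37 deg C. Beta-arrestin recruitment was read as luminescence after 1 h with detection reagent at ambient temperature.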
TRPV1 PAM: enhances activation of the human vanilloid receptor TRPV1; Q8NER1; TRPV1-expressing cells, Fluo-8 calcium influx, capsaicin EC20 potentiation; host cell line not named in the record; control for the full effect not named in the record; potentiation, % at 8.33 µM; 0.02% of 320,000 active; AID 540277; active means potentiation above 80%; inconclusive means 30% to 80%; inactive means below 30%; note: 0% is about no effect
Target sequence (Q8NER1 whole entry, looked up): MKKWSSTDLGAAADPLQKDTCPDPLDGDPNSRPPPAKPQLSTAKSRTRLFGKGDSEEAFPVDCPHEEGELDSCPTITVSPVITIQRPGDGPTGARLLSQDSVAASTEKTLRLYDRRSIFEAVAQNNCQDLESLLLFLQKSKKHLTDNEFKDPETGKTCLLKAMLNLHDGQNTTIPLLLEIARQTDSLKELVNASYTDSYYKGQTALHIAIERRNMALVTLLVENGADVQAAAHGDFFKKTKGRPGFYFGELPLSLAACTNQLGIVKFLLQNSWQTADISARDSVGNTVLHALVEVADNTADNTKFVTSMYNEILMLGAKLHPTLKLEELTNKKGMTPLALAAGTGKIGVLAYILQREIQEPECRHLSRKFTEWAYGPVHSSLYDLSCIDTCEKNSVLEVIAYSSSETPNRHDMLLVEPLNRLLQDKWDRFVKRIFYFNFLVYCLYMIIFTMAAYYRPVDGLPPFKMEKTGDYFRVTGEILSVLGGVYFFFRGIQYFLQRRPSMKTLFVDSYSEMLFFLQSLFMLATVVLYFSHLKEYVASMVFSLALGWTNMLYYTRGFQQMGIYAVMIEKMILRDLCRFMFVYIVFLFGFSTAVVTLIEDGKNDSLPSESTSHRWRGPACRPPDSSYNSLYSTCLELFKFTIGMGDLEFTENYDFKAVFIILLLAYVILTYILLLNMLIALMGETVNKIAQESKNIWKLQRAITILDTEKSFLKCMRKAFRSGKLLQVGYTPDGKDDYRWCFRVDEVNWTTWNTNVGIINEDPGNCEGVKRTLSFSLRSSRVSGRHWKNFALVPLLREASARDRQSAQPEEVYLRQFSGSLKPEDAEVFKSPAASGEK
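TRPV1-expressing cells were cultured overnight at 35.5C and loaded with Fluo-8 calcium dye for 40 to 90 min at room temperature. After a 10 s baseline, compound was added and calcium influx was read kinetically for 3 min (ex 480/em 520 nm).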
Six1-Eya2 blk: Six1/Eya2 interaction inhibition; Q15475+O00167; AlphaScreen GST-Six1/His-Eya2 binding, biochemical; hits give low values; control for the full effect not named in the record; activity change, % (concentration not given with the values); 0.56% of 360,000 active; AID 651725; in the data active = activity change below about -65%; inconclusive = about -30% to -65%; inactive = above about -30%; note: % is set by controls: 0 for no effect and ±100 for the full control effect
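Compounds are tested against tagged Six1 and Eya2 proteins bridged by glutathione donor and nickel acceptor beads; after a one-hour incubation at 37 °C without light, AlphaScreen emission is recorded.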
CtBP-E1A blk: CtBP/E1A binding inhibition; AlphaScreen GST-E1A/His-CtBP binding, 1536-well; hits give low values; control for the full effect not named in the record; AID 651724; 0.49% of 340,000 active; activity change, % (no concentration beside the values); in the data active means activity change below about -65%; inconclusive means about -30% to -65%; inactive means above about -30%; note: % is set by controls: 0 for no effect and ±100 for the full control effect; compound concentration not given in the record
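Steps: dispense buffer (Tris pH 8.0, NaCl 300 mM, TCEP 1 mM, BSA, Tween 20); add 5X protein mix (GST-E1A, His-CtBP, 125 nM each); pin 23 nL compound; 2 h at 37 °C, dark; add 5X beads (50 ug/mL); 1 h; read.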
The depositor's hits bear a star; & = joins results of further samples.

What do the screens show for `COCCN1CCN(C(=O)c2cc(COc3cncc(Cl)c3)on2)CC1`?
TRPML1 agonist: 0.5; TRPML1 inh: 0.1; D2 PAM: inconclusive; TRPV1 PAM: 3.6; Six1-Eya2 blk: 6.3; CtBP-E1A blk: -5.3

How did Cc1nc(C(Cl)(Cl)Cl)nc2[nH]ccc(=O)c12 do in these assays?
TRPML1 agonist: 0.0; TRPML1 inh: 6.5; D2 PAM: inconclusive; TRPV1 PAM: -0.8; Six1-Eya2 blk: -8.8; CtBP-E1A blk: 0.0

What do the screens show for `C/C(CC(=O)Nc1ccc(OCc2ccccc2)cc1)=N\NC(=O)C(=O)Nc1ccc(C)c(Cl)c1`?
TRPML1 agonist: 0.4; TRPML1 inh: 23.8; D2 PAM: 6.6; TRPV1 PAM: -10.3; Six1-Eya2 blk: 7.3; CtBP-E1A blk: 7.8

What do the screens show for `CCN(CC)c1ccc(NC(=O)COC(=O)/C=C/c2nc3ccccc3s2)cc1`?
TRPML1 agonist: 0.0; TRPML1 inh: -2.7; D2 PAM: -7.8; TRPV1 PAM: 6.1; Six1-Eya2 blk: -14.8; CtBP-E1A blk: inconclusive

How did COc1cccc(NS(=O)(=O)c2ccc3[nH]cc(C(=O)N(C)Cc4ccco4)c(=O)c3c2)c1 do in these assays?
TRPML1 agonist: 0.4&0.2; TRPML1 inh: -8.8&5.7; D2 PAM: 7.6; TRPV1 PAM: 2.6; Six1-Eya2 blk: -9.6; CtBP-E1A blk: -8.7

Results for C=CCn1c(SCc2nc3cc(C(F)(F)F)ccc3c(=O)[nH]2)nc2sc(CC)cc2c1=O ?
TRPML1 agonist: 0.5; TRPML1 inh: -9.9; D2 PAM: -11.8; TRPV1 PAM: 5.9; Six1-Eya2 blk: 5.0; CtBP-E1A blk: 2.9

What do the screens show for `Cc1ccc(C(=O)N/C(=C\c2ccccc2)C(=O)NCCCn2ccnc2)cc1`?
TRPML1 agonist: -0.1; TRPML1 inh: 21.7; D2 PAM: -3.2; TRPV1 PAM: 5.9; Six1-Eya2 blk: -11.5; CtBP-E1A blk: -10.5

What do the screens show for `COc1ccccc1C(=O)NCCC(=O)NC1CCCCCC1`?
TRPML1 agonist: 0.2; TRPML1 inh: 7.6; D2 PAM: -5.9; Six1-Eya2 blk: -3.0; CtBP-E1A blk: 0.4

What do the screens show for `CNC(=O)COC(=O)c1cc(=O)[nH]c2ccccc12`?
TRPML1 agonist: 0.4; TRPML1 inh: 29.1; D2 PAM: -5.5; TRPV1 PAM: 9.2; Six1-Eya2 blk: 1.4; CtBP-E1A blk: 3.5

Results for CC(C)(C)c1ccc(S(=O)(=O)Nc2cccnc2)cc1 ?
TRPML1 agonist: 0.3; TRPML1 inh: -11.1; D2 PAM: 4.9; TRPV1 PAM: -23.8; Six1-Eya2 blk: 2.1; CtBP-E1A blk: 0.6

Results for COc1ccc(OC)c(NC(=O)C2CCCN2C(=O)OCc2ccccc2)c1 (centres undefined) ?
TRPML1 agonist: 1.0; TRPML1 inh: 9.0; D2 PAM: -4.9; TRPV1 PAM: -18.0; Six1-Eya2 blk: -3.3; CtBP-E1A blk: 6.2

How did Cc1cc(=O)[nH]c(N/N=C/c2ccc(-c3ccc(F)cc3)o2)n1 do in these assays?
TRPML1 agonist: -0.7; TRPML1 inh: -0.8; D2 PAM: -5.8; TRPV1 PAM: -18.2; Six1-Eya2 blk: -84.7*; CtBP-E1A blk: -82.5*

How did Clc1ccc(-n2nnnc2-c2cnc(-c3ccccn3)nc2-c2cccs2)cc1 do in these assays?
TRPML1 agonist: 0.6; TRPML1 inh: 0.6; D2 PAM: 3.1; TRPV1 PAM: 0.9; Six1-Eya2 blk: -15.8; CtBP-E1A blk: -14.1

Results for CCN(Cc1ccccc1)S(=O)(=O)c1c(C)[nH]c(C)c1C(=O)N1CCCCC1 ?
TRPML1 agonist: -0.6; TRPML1 inh: 1.9; D2 PAM: -4.6; TRPV1 PAM: 14.5; Six1-Eya2 blk: -1.6; CtBP-E1A blk: 0.9

Results for Cn1c(=O)c2c3c(sc2n2c(SCC(N)=O)nnc12)CC(C(C)(C)C)CC3 (centres undefined) ?
TRPML1 agonist: 0.2; TRPML1 inh: -7.5; D2 PAM: -8.3; TRPV1 PAM: -3.6; Six1-Eya2 blk: -14.0; CtBP-E1A blk: -14.8

What do the screens show for `O=C1C=CCC(/C=C/c2ccccc2)O1` (centres undefined)?
TRPML1 agonist: 2.4; TRPML1 inh: -7.2; D2 PAM: -1.4; TRPV1 PAM: -1.0; Six1-Eya2 blk: 1.7; CtBP-E1A blk: -2.5

How did COc1ccc(S(=O)(=O)N(CCc2ccccc2)CC(=O)O)cc1 do in these assays?
TRPML1 agonist: 0.1; TRPML1 inh: 1.9; D2 PAM: -13.1; TRPV1 PAM: 0.2; Six1-Eya2 blk: 22.2; CtBP-E1A blk: 0.0

What do the screens show for `COc1ccc(C(c2sc3nc(C)nn3c2O)N2CCc3ccccc3C2)cc1` (centres undefined)?
TRPML1 agonist: -0.1; TRPML1 inh: -1.6; D2 PAM: -4.1; TRPV1 PAM: 10.5; Six1-Eya2 blk: -2.0; CtBP-E1A blk: 0.9

What do the screens show for `O=C(COC(=O)c1ccc2c(c1)OCCO2)NCc1ccccc1`?
TRPML1 agonist: 0.4; TRPML1 inh: 1.5; D2 PAM: -2.9; TRPV1 PAM: -27.1; Six1-Eya2 blk: 3.6; CtBP-E1A blk: 3.2

How did O=C(Nc1ccc(N2CCOCC2)c(Cl)c1)c1ccc(-n2cnnc2)cc1 do in these assays?
TRPML1 agonist: -0.1; TRPML1 inh: 7.6; D2 PAM: 2.3; TRPV1 PAM: -2.0; Six1-Eya2 blk: -3.7; CtBP-E1A blk: 0.1

3 entries from above, ordered by molecular weight, smallest number first.
What do the screens show for `O=C(COC(=O)c1ccc2c(c1)OCCO2)NCc1ccccc1`?
TRPML1 agonist: 0.4; TRPML1 inh: 1.5; D2 PAM: -2.9; TRPV1 PAM: -27.1; Six1-Eya2 blk: 3.6; CtBP-E1A blk: 3.2

How did COc1ccc(S(=O)(=O)N(CCc2ccccc2)CC(=O)O)cc1 do in these assays?
TRPML1 agonist: 0.1; TRPML1 inh: 1.9; D2 PAM: -13.1; TRPV1 PAM: 0.2; Six1-Eya2 blk: 22.2; CtBP-E1A blk: 0.0

Results for COc1ccc(OC)c(NC(=O)C2CCCN2C(=O)OCc2ccccc2)c1 (centres undefined) ?
TRPML1 agonist: 1.0; TRPML1 inh: 9.0; D2 PAM: -4.9; TRPV1 PAM: -18.0; Six1-Eya2 blk: -3.3; CtBP-E1A blk: 6.2

Carrying on:
What do the screens show for `COCCCn1c(C(=O)N2CCOCC2)cc2c(=O)n3ccccc3nc21`?
TRPML1 agonist: 0.0; TRPML1 inh: -9.4; D2 PAM: -1.2; TRPV1 PAM: 8.3; Six1-Eya2 blk: 1.1; CtBP-E1A blk: 2.9

Results for C[C@@H]1COC(=O)[C@H](Cc2ccc(F)cc2)CC/C=C/C[C@@H](CC(=O)N[C@@H](CO)Cc2ccccc2)C(=O)N1 ?
TRPML1 agonist: -0.5; TRPML1 inh: 18.8; D2 PAM: -6.5; Six1-Eya2 blk: 1.8; CtBP-E1A blk: 3.5

What do the screens show for `O=C(O)CCCc1ccccc1`?
TRPML1 agonist: -0.2; TRPML1 inh: 2.1; D2 PAM: 1.9; TRPV1 PAM: -2.5; Six1-Eya2 blk: -3.7; CtBP-E1A blk: 2.6

Results for Oc1ccc(/C=N/N=C(c2ccccc2)c2ccccc2)c(O)c1O ?
TRPML1 agonist: 1.7; TRPML1 inh: 3.5; D2 PAM: 2.2; TRPV1 PAM: 9.1; Six1-Eya2 blk: -24.0; CtBP-E1A blk: -16.7

What do the screens show for `NNC(=O)CC12CC3CC(C1)CC(n1ncnn1)(C3)C2`?
TRPML1 agonist: -0.6; TRPML1 inh: 5.6; D2 PAM: -11.4; TRPV1 PAM: 8.1; Six1-Eya2 blk: 0.4; CtBP-E1A blk: -16.7

Results for O=C1CCN(Cc2cccnc2)CCN1[C@H](CO)c1ccccc1 ?
TRPML1 agonist: -0.4&0.4; TRPML1 inh: -7.7; D2 PAM: -6.3; TRPV1 PAM: -8.6; Six1-Eya2 blk: 2.2; CtBP-E1A blk: 3.9

What do the screens show for `COc1ccccc1C(CNc1ncccc1[N+](=O)[O-])N(C)C` (centres undefined)?
TRPML1 agonist: 0.7; TRPML1 inh: 20.6; D2 PAM: -11.8; TRPV1 PAM: 20.0; Six1-Eya2 blk: -0.2; CtBP-E1A blk: -5.7

How did O=C(CC1NCCNC1=O)Nc1ccc(Oc2ccccc2)cc1 (centres undefined) do in these assays?
TRPML1 agonist: 1.2; TRPML1 inh: 11.7; D2 PAM: -10.2; TRPV1 PAM: inconclusive; Six1-Eya2 blk: -1.3; CtBP-E1A blk: -3.7

Results for CCNS(=O)(=O)c1ccc(NC(=O)Nc2cc(C)ccc2OC)cc1 ?
D2 PAM: -37.6; TRPV1 PAM: 3.1; Six1-Eya2 blk: -3.1; CtBP-E1A blk: -6.9

Results for O=C(O)c1cccnc1Sc1ncnc2sc3c(c12)CCC3 ?
TRPML1 agonist: 0.3; TRPML1 inh: -1.3; D2 PAM: -4.7; TRPV1 PAM: 5.4; Six1-Eya2 blk: -7.2; CtBP-E1A blk: 0.2

Results for COc1ccc(S(=O)(=O)NCC2CCCN(C(=O)CC3CCCC3)C2)cc1 (centres undefined) ?
TRPML1 agonist: -0.2; TRPML1 inh: -9.7; D2 PAM: -12.8; TRPV1 PAM: -5.5; Six1-Eya2 blk: 4.5

Results for CN(C)CCOCCSc1ccc(Cl)cc1 ?
TRPML1 agonist: 1.7; TRPML1 inh: -9.6; D2 PAM: -15.2; TRPV1 PAM: -3.7; Six1-Eya2 blk: 5.1; CtBP-E1A blk: 7.5

How did O=C(NCc1ccc(F)cc1)c1cccc(NC2=NC3CS(=O)(=O)CC3S2)c1 (centres undefined) do in these assays?
TRPML1 agonist: 0.7; TRPML1 inh: 17.5; D2 PAM: -5.9; TRPV1 PAM: -6.0; Six1-Eya2 blk: 3.4; CtBP-E1A blk: 4.2

Results for Cc1nnc(N2CCC(C(=O)NC3CCC(C)CC3)CC2)c2nn(-c3ccc(Cl)cc3)c(C)c12 (centres undefined) ?
TRPML1 agonist: 0.0&0.8; TRPML1 inh: -10.3&-15.3; D2 PAM: -7.6; TRPV1 PAM: -6.6; Six1-Eya2 blk: 3.2

Results for CC1(c2ccccc2)CC(c2ccccc2)=C(C#N)C(=O)N1 (centres undefined) ?
TRPML1 agonist: 1.8; TRPML1 inh: 3.3; D2 PAM: -11.7; Six1-Eya2 blk: -15.5; CtBP-E1A blk: 1.8

Results for O=C(Nc1ccc(OC(F)(F)F)cc1)C1CCCN(S(=O)(=O)c2cnc[nH]2)C1 (centres undefined) ?
TRPML1 agonist: -0.8; TRPML1 inh: -1.8; D2 PAM: 1.8; TRPV1 PAM: -14.2; Six1-Eya2 blk: -0.3; CtBP-E1A blk: 2.4

Results for COc1cc(NS(=O)(=O)c2ccc3c(c2)oc(=O)n3C)cc(OC)c1OC ?
TRPML1 agonist: 0.7; TRPML1 inh: 6.7; D2 PAM: -2.6; TRPV1 PAM: -0.5; Six1-Eya2 blk: 4.7; CtBP-E1A blk: -0.9
